Screening data: PubChem BioAssay, ICCB-Longwood Screening Facility, Harvard Medical School
Choline anaer gr – growth inhibitors of anaerobic choline-fed gram-negatives, minimal medium, absorbance; AID 1963822, 2024; actives 0.2% (n = 55,000); Gram-negative bacterium anaerobic choline minimal medium; active compounds read low; many inactives read as strong as hits in the columns shown; calls only;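 active = growth z-score on choline under -2 at 7 or 20 h with little or no fall on glycerol, limits in tiers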;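 note: stock transfer was 300 nL into about 50 µL; the organism is E. coli; final concentration not given here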
Choline anaer gr early – also measured in Choline anaer gr; calls as there; z-score; measured here: choline growth z-score, timepoint 1;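 score of optical density at 7 h as mean of two plates; lower means less growth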
Active calls of the source: *; i = inactive; & = joins results of further samples.

SMILES	Choline anaer gr	Choline anaer gr early
O=c1c2c(-c3ccccc3)csc2ncn1CCCn1ccnc1	i	-0.2
Cc1ccccc1C1CC(=O)c2cnc(N3c4ccccc4CC3C)nc2C1 (stereo unspecified)	i	0.37
Cc1csc(-c2cc(S(=O)(=O)N3CCCC3)cn2CC(=O)N2CCCCC2)n1	i	0.33
Cc1ccc(CNc2nc3nc(C)c(CCC(=O)Nc4nccs4)c(=O)n3[nH]2)cc1	i	-0.26
COc1nccn(-c2ccc(C)c(Cl)c2)c1=O	i	0.18
Cc1ccc(Nc2nc(Nc3ccccc3)c3cnn(C)c3n2)cc1C	i	1.2
Cc1ccc(C(=O)NCCc2nc(-c3ccc(F)cc3)n[nH]2)cc1	i	-0.75
CCN(CC)c1ncc(NS(=O)(=O)c2cc(C)c(C)cc2C)cc1C(=O)O	i	0.27
O=C1Nc2ccc(I)cc2C1=Cc1cc(Br)c(O)c(Br)c1	i	-0.18
COc1ccc(-c2cc(-c3cc(C)ccc3O)[nH]n2)cc1	i	-0.1
CCC(C)(c1nnnn1-c1c(C)cccc1C)N1CCOCC1 (stereo unspecified)	i	-0.57
Cn1c(=O)c(N2CCC(NC(=O)NCC3CCCO3)CC2)nc2ccccc21 (stereo unspecified)	i	-0.22
CCc1noc(-c2ccc(OCC(=O)Nc3nnc(CC(C)C)s3)cc2)n1	i	-0.39
Clc1ccccc1-c1noc(CSc2ccc(-c3ccccc3)nn2)n1	i	0.12
O=C(NCCCN1CCN(C2CCCCC2)CC1)c1csc(-c2ccncc2)n1	i	-0.22
Cc1ccc(-n2nc(C(=O)Nc3nccs3)c3ncn(C)c(=O)c32)cc1	i	-0.14
O=C(NCc1ccccn1)c1nc[nH]c1C(=O)N1CCC(O)C1 (stereo unspecified)	i	1.1
CN1c2ccc(Cl)cc2-c2nc(SCC(N)=O)ncc2S1(=O)=O	i	1.6
COc1ccc(NC(=O)c2sc3nc4n(c(=O)c3c2C)CCCCC4)cc1Cl	i	0.38
CC(C)Cc1ccc(S(=O)(=O)N2CCc3c(c(COCc4ccccc4)nn3C)C2)cc1	i	0.03
Cc1csc(-c2cc(S(=O)(=O)Nc3ccc(Cl)cc3C)c(C)s2)n1	i	-0.13
CCCCOc1cccc(C(=O)N(Cc2ccccc2)C2CCS(=O)(=O)C2)c1 (stereo unspecified)	i	-0.19
O=c1[nH]c(SCc2ccccc2)nc2c1CN(Cc1ccc(F)cc1)CC2	i	0.12
COc1ccc(Cl)cc1Nc1c(C(=O)N2CCCCC2)cnc2ccc(F)cc12	i	-0.54
O=S(=O)(c1ccc2c(c1)-c1oncc1CO2)N1CCC2(CC1)OCCO2	i	-1.6
CN1C(=O)C2(CCN(C(=O)NC(C)(C)C)C2)c2ccccc21 (stereo unspecified)	i	0.66
CCSc1nn(CC(=O)Nc2ccccc2CC)c(N)c1S(=O)(=O)c1ccc(OC)cc1	i	0.64
Cc1cc(-c2csc(S(=O)(=O)N3CCN(c4cccc(C)c4C)CC3)c2)on1	i	0.2
Cc1cccc(-c2cc(N3CCN(C(=O)c4ccc(C)cc4C)CC3)ncn2)c1	i	1.1
Cc1nc(CC(=O)Nc2c(C)cccc2C)cs1	i	0.85
CC(C)c1ccc2c(c1)c(SC(C)(C)C)c(CC(C)(C)C(=O)O)n2Cc1ccc(Cl)cc1	i	0.43&-0.99&0.11
O=C1CCCN2N=C(SCC(=O)NCc3ccc(F)cc3)SC2=N1	i	0.57
CCN(CC)CCNC(=O)CN(C)c1nn2c(NC3CCCC3)c(-c3ccc(OC)cc3)nc2s1	i	-1.6
CCc1ccc(-c2ccc(=O)[nH]n2)cc1S(=O)(=O)Nc1ccc(Br)cc1C	i	1.9
CCCCn1c(=O)[nH]c2c(C(=O)N3CCCC(C(=O)OCC)C3)snc2c1=O (stereo unspecified)	i	0.79
Oc1ccc(C2Nc3ccc(Cl)cc3[C@H]3OCCC[C@@H]23)cc1 (stereo partly specified)	i	-0.92
Cc1ccc(NS(=O)(=O)c2c(C)sc(C)c2-c2cc(C(F)(F)F)on2)cc1C	i	1
Fc1ccc(CN2CCCC2c2ccc(Cl)cc2)c(F)c1 (stereo unspecified)	i	0.49
CCNc1cc(C)nc(Nc2ccc(NC(=O)CC(C)C)cc2)n1	i	1.1
COC(=O)c1cnn(-c2cccc(C)c2)c1N	i	-0.3
Cc1ccc(C)c(Cn2nc(C)c3c(C)onc3c2=O)c1	i	-0.46
COc1ccc2c(c1OC)C(=O)O[C@@H]2[C@H]1c2c(cc3c(c2OC)OCO3)CCN1C	i	0.2&0.54
CN1CCc2c(sc(NC(=O)c3nc4ccccc4s3)c2-c2nc3ccccc3s2)C1	i	-0.76
O=C(NC1CCCC1)C1c2cccn2CC(=O)N1c1cccc(Cl)c1 (stereo unspecified)	i	0.24
CC(=O)N1c2ccc(S(=O)(=O)NCC3CCC(C(=O)Nc4ccccn4)CC3)cc2CC1C (stereo unspecified)	i	1.1
CCCN1C(=O)c2ccccc2Sc2cc(NC(=O)c3cnccn3)ccc21	i	1
CCC(C)NC(=O)C1CCN(c2ncnc3oc(C)c(C)c23)CC1 (stereo unspecified)	i	-0.52
CCc1onc(C)c1C1CCCN1C(=O)c1cnn2c(C(F)(F)F)cc(-c3ccccc3)nc12 (stereo unspecified)	i	0.68
C=CCNC(=O)CSc1nc2c(cnn2CCO)c(=O)[nH]1	i	-0.32
CCOC(=O)c1c(CSc2ccc(C)cc2)n(C)c2ccc(O)cc12	i	-1.3
Cc1ccc(-c2noc(-c3ccc(=O)n(CC(=O)Nc4ccc5c(c4)OCCO5)c3)n2)cc1	i	-1.7
C=CCNC(=O)CCc1nc(-c2cc3ccc(C)cc3[nH]c2=O)no1	i	-0.45
CCN1CCN(S(=O)(=O)c2cc(-c3nc(C)cs3)n(CC(=O)N3CCOCC3)c2)CC1	i	-0.22
CC(=O)Nc1ccc(NC(=O)C2CCN(S(=O)(=O)c3cc(-c4noc(C)n4)sc3C)CC2)cc1	i	-0.93
CC(C)n1c(=O)c(=O)[nH]c2ccccc21	i	-0.32
CC1CCN(c2ncc3c(n2)CCC(C(=O)NCCC(C)N2CCCC2)C3)CC1 (stereo unspecified)	i	-1.4
Cn1ccc2c(OCC(=O)NC3CCCCC3)cccc2c1=O	i	-0.49
CCNc1nc(C(N)=O)c(NC(=O)c2ccccc2Br)s1	i	-1.1
O=C(NC1CCCC1)c1ccc(Nc2cc(-c3ccc(F)cc3)ncn2)cc1	i	0.84
Cc1nn(CC(=O)NC2CCN(Cc3ccccc3)CC2)c(=O)c2c(C)n(-c3ccccc3)nc12	i	0.18

3 records drawn at random from those above:
SMILES	Choline anaer gr	Choline anaer gr early
Cc1ccc(-c2noc(-c3ccc(=O)n(CC(=O)Nc4ccc5c(c4)OCCO5)c3)n2)cc1	i	-1.7
CCCN1C(=O)c2ccccc2Sc2cc(NC(=O)c3cnccn3)ccc21	i	1
Cn1ccc2c(OCC(=O)NC3CCCCC3)cccc2c1=O	i	-0.49

(further entries)
SMILES	Choline anaer gr	Choline anaer gr early
O=C(NCc1ccccc1Cl)c1cc(-c2ccccn2)n[nH]1	i	1.3
O=C(Cn1cc2c(=O)n(Cc3ccc(F)cc3)cnc2n1)N1CCc2ccccc2C1	i	0.45
Cc1cccc(-c2cc(NC(=O)CN3C(=O)c4ccccc4C3=O)n(-c3ccccc3)n2)c1	i	1
COc1cccc(NC(=O)c2ccc(-n3nnc4cccnc43)cc2)c1	i	0.47
CCC(C)N[C@H]1CS(=O)(=O)C[C@@H]1S(=O)(=O)c1ccc(F)cc1 (stereo partly specified)	i	-0.05
CN(C(=O)c1cc2c(s1)-c1ccccc1S(=O)(=O)C2)c1ccc(F)cc1	i	-0.07
Clc1cccc(-c2nnc(-c3nc(N4CCCC4)c4ccccc4n3)o2)c1	i	0.84
CCOc1ccc(-c2noc(CSc3nccn3-c3ccccc3)n2)cc1	i	-0.69
O=S(=O)(c1cccc2nsnc12)N1CC(OCc2cccc(F)c2)C1	i	-0.73
CN1C(=O)c2cc(C(=O)NCc3cccc(Cl)c3)nn2CC1(C)C(=O)NC1CCCC1 (stereo unspecified)	i	0.69
CN(C)c1ccc(C(=O)NCCCCCCC(=O)NO)cc1	i	0.66
COc1ccc(-n2nnc3c(=O)[nH]cnc32)cc1	i	-0.71
Cc1cc(Sc2ccc(NC(=O)Nc3ccc(F)cc3)cc2)n2ncnc2n1	i	-1.1
Cc1cccc(C)c1NC(=O)NCCc1c[nH]c2ccccc12	i	0.75
COc1cc2[nH]c(=O)n(CCCCC(=O)N3CCN(c4ccccn4)CC3)c(=O)c2cc1OC	i	0.94
COc1ccc(NC(=O)C2CCN(c3cc(C)nc4cc(-c5ccc(C)cc5)nn34)CC2)cc1	i	-0.98
Cc1cc2[nH]c(=O)[nH]c2cc1NC(=O)Nc1ccc(Cl)cc1	i	-0.57
CC(C)NCc1ccc(-c2ccccc2)o1	i	-0.57
Cc1cc(N2CCN(C)CC2)nc(N2CCN(S(=O)(=O)c3cc(C)c(C)cc3C)CC2)n1	i	-0.27
O=c1c2cc(-c3ccc(F)cc3)nn2cnn1Cc1nc(-c2ccc(Br)cc2)no1	i	-0.72

Entries above that have a CF3 group:
SMILES	Choline anaer gr	Choline anaer gr early
Cc1ccc(NS(=O)(=O)c2c(C)sc(C)c2-c2cc(C(F)(F)F)on2)cc1C	i	1
CCc1onc(C)c1C1CCCN1C(=O)c1cnn2c(C(F)(F)F)cc(-c3ccccc3)nc12 (stereo unspecified)	i	0.68

The list goes on.
SMILES	Choline anaer gr	Choline anaer gr early
COC(=O)c1cc(S(=O)(=O)N2CCCC2C(=O)N2CCOCC2)cn1C (stereo unspecified)	i	-0.49
CC1CCN(C(=O)CSc2nc3c(c(=O)n2Cc2ccccc2)SCC3)CC1	i	1.5
CCOC(=O)c1cn[nH]c1S(=O)(=O)Nc1cccc(C)c1C	i	-0.53
Cc1cc2nc3c(=O)[nH]c(=O)nc-3n(C)c2cc1C=O	i	-0.33
CCOC(=O)c1c(C)n(-c2ccc(C)cc2)c2ccc(OCC(O)CN3CCC(C)CC3)cc12 (stereo unspecified)	i	-1.2
O=C(NCCc1ccccc1)c1cccc(Oc2cc(-c3ccccc3)ncn2)c1	i	0.49
Cc1ccc2[nH]c(=O)c(-c3noc(CCCC(=O)Nc4nccs4)n3)cc2c1	i	-0.31
Cc1noc(C)c1C1CCCN1C(=O)c1cc(C(C)C)on1 (stereo unspecified)	i	1
Cc1cc(C2CCCN2C(=O)c2cc(-c3ccco3)on2)on1 (stereo unspecified)	i	-1.1
CCCCC/C=C\C/C=C\C/C=C\C/C=C\CCCC(=O)OC(CO)CO	i	0.69
CCOc1ccc(N(Cc2nc3nc(C)cc(C)n3n2)C(=O)C2CCCCC2)cc1	i	-0.28
COc1ccc(-c2cc3ncc(C)n3c(Nc3ncccc3C(N)=O)n2)cc1OC	i	1.1
COc1ccc(-c2nc(COc3ccccc3-c3nnc(-c4ccccc4)o3)c(C)o2)c(OC)c1	i	0.77
CCC(CC)C(=O)NCc1nc2cccnc2n1CCOC	i	-2.2
Cc1ccc(-c2c(C(F)(F)F)nn3c(NCc4ccccn4)cc(C)nc23)cc1	i	-1.6
O=C(CSc1nnc(-c2ccccc2)o1)N1c2ccccc2CCc2ccccc21	i	0.3
CC(C)(C)NS(=O)(=O)c1ccc2c(c1)CCN2C(=O)NC1CCCC1	i	0.67
CCCCN(C)C(=O)c1cc(NC(=O)C(C)C)cnc1N1CCNCC1	i	0.22
CC(CCc1ccccc1)NC(=O)CCS(=O)(=O)c1ccc2c(c1)NC(=O)CO2 (stereo unspecified)	i	0.43
CCc1ccc2oc(C(=O)NCC(c3ccc(C(C)(C)C)cc3)N3CCCC3)cc(=O)c2c1 (stereo unspecified)	i	-0.64
CCN(CC)CCNC(=O)c1ccc(NC(C)=O)cc1	i	0.14
CCCNC(C)(C)COC(=O)c1ccccc1	i	0.15
CS(=O)(=O)N1CCC(N2CCOCC2)CC1	i	0.16
COc1ccc(C2=Nc3ccccc3N(Cc3cccc(F)c3)C(=O)C2)cc1	i	0.35
CSc1nnc2n(C)c(=O)c3sccc3n12	i	-1.9
CCN1CCN(C(=O)C2(c3ccccc3Cl)CC2)CC1	i	-0.59
O=C(Nc1cnc(N2CCN(c3ccccc3F)CC2)c(C(=O)O)c1)c1ccccc1	i	0.08
CCSc1nnc(NC(=O)CSc2ncnc3ccccc23)s1	i	0.11
COc1cc(NC(=O)c2c(S(=O)(=O)Nc3ccc(Cl)cc3)n[nH]c2C)cc(OC)c1	i	0.18
O=C(Nc1ccc2c(c1)OCO2)C1CCCN(c2ccnc(-c3ccc(F)cc3)n2)C1 (stereo unspecified)	i	-0.21
Cn1c(=O)n(C)c2cc(N3CCOCC3)c(NC(=O)NCC3CCCO3)cc21 (stereo unspecified)	i	-1.4
Cc1ccccc1C1CC(=O)c2cnc3c(-c4ccc(Cl)cc4)c(C)nn3c2C1 (stereo unspecified)	i	-0.3
COc1cccc(C(=O)Nc2c(-c3ccc(C)cc3)nc3ncccn23)c1OC	i	-0.56
CCCCc1nn2c(=O)cc(CN3CCN(c4ncccn4)CC3)nc2s1	i	0.57
CCOC(=O)c1[nH]c(C)c(S(=O)(=O)N2c3ccccc3CC2C)c1C (stereo unspecified)	i	-1.4

Single records, as listed above:
Entry for `CCOC(=O)c1[nH]c(C)c(S(=O)(=O)N2c3ccccc3CC2C)c1C` (stereo unspecified) = Choline anaer gr = i; Choline anaer gr early = -1.4
Entry for `O=C(Nc1ccc2c(c1)OCO2)C1CCCN(c2ccnc(-c3ccc(F)cc3)n2)C1` (stereo unspecified) = Choline anaer gr = i; Choline anaer gr early = -0.21
Entry for `CS(=O)(=O)N1CCC(N2CCOCC2)CC1` = Choline anaer gr = i; Choline anaer gr early = 0.16

Some of the compounds tested; rates above refer to the full screens.
